# Mtb betalactam: beta-lactam sensitization of Mtb H37Rv, H37Rv. M. tuberculosis H37Rv growth with meropenem, percent inhibition; hits of this screen are not shown here. inhibition, % at 25 µM. 0.27% of 330,000 active;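 active = about 74% or more and at least 40 points above the plate without the antibiotic, then above 30% in a dose series; inconclusive = first-round hits that could not be retested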;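 note: growth measured after seven days incubation then overnight dye step; 0% = bacteria only wells and 100% = bacteria with antibiotic; twin plates without the antibiotic show which effects depend on it; some results filed as inactive read as strong as hits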
# The depositor's hits bear a star; u = inconclusive.
SMILES,Mtb betalactam
COc1cc(-c2cc(C(=O)Nc3cc(S(=O)(=O)N4CCOCC4)ccc3O)c3ccccc3n2)cc(OC)c1OC,7.9
O=C(NCc1n[nH]c(=S)n1-c1cccc(C(F)(F)F)c1)c1ccc(S(=O)(=O)N2CCCCC2)cc1,-5.0
CCCn1nc(C(=O)N(C)CC(=O)Nc2ccc(OCC)c(OCC)c2)c2ccccc2c1=O,-4.4
COc1cc(OC)c(/C=C2\C(=O)Nc3ccccc32)c(OC)c1,-10.8
COc1ccc(S(=O)(=O)Nc2cccc3c2O[C@H](CN(C)S(=O)(=O)c2ccccc2)[C@@H](C)CN([C@H](C)CO)C3=O)cc1,-0.1
CCC(=O)Nc1ccc(N2CCOCC2)c(S(=O)(=O)Nc2ccc(Cl)cc2)c1,22.9
CCC(CO)Oc1cc(NCc2ccccc2OC)c2ncn(C(C)C)c2c1 (stereo not given),-6.2
CN(C)S(=O)(=O)n1cnc(C(CCO)c2ncn(S(=O)(=O)N(C)C)c2CCCO)c1 (stereo not given),8.0
O=C(c1cccc(Cl)c1)N1CCN(S(=O)(=O)c2ccc(Cl)s2)CC1,-2.5
Cc1ccccc1C(=O)Nc1ccnn1C1CCN(Cc2ccncc2)CC1,u
N#Cc1c([N+](=O)[O-])cc([N+](=O)[O-])cc1S(=O)(=O)Cc1ccccc1,94.9
Cc1c(C(=O)NNC(=O)c2csc(N3CCOCC3)n2)oc2ccccc12,1.8
CCOc1cc(C(=O)NCc2ccco2)cc(OCC)c1OCC,6.1
Cc1ccc(OCC(=O)NNC(=O)Cn2c(=O)cnc3ccccc32)cc1,5.2
COc1ccc2sc(-c3ccccc3OC)c(-c3ccc(OCCN4CCCC4)cc3)c2c1,99.5
Cc1ccc(C)c(N2N=C(C(=O)Nc3ccccc3N3CCOCC3)CCC2=O)c1,2.5
O=C(CCc1ccccc1)NC1(Cc2ccccc2)CCN(CCc2cccs2)C1=O (stereo not given),1.8
COc1ccc(OC)c(/C=C/C(=O)OCC(=O)N2CCCC2)c1,10.7
CCCCCC(C)NC(=O)c1cc(S(=O)(=O)N2CCCCC2)ccc1N1CCOCC1 (stereo not given),-7.4
Fc1cc(F)cc(Nc2nc(Cl)nc(NC3CCCC3)n2)c1,99.0
CCCN(CC1CC1)C(=O)COC(=O)c1oc2c(F)cccc2c1C,-1.3
COc1cc(NC(=O)c2cccc(S(=O)(=O)N3CCCCC3)c2)cc(OC)c1OC,-4.0
Cc1cc(C)nc(NC(=O)c2ccc(Br)s2)n1,-8.7
N#Cc1cc([N+](=O)[O-])ccc1NC(=O)COC(=O)CN1C(=O)C2CCCCC2C1=O (stereo not given),2.2
CCC1(c2ccc(OC)cc2)NC(=O)N(CC(=O)c2ccc3c(c2)OCCO3)C1=O (stereo not given),-5.7
CN1C(=O)c2cccc3c(S(=O)(=O)N4CCCC4C(=O)O)ccc1c23 (stereo not given),-2.6
CCc1cc(C(=O)Nc2ccccc2N2CCOCC2)sc1C,2.6
CC(=O)Nc1ccc(S(=O)(=O)N2CCSC2)cc1,-11.5
C=CC[C@H](CC(=O)NCCO)C(=O)N[C@@H](COC(=O)[C@@H](CC=C)CC(=O)OC(C)(C)C)Cc1c[nH]c2ccccc12,5.4
COc1ccc(Cl)cc1NC(=O)CN(C)C(=O)/C=C/c1ccco1,1.6

# Quoted at random: six entries already listed
SMILES,Mtb betalactam
COc1ccc2sc(-c3ccccc3OC)c(-c3ccc(OCCN4CCCC4)cc3)c2c1,99.5
Cc1c(C(=O)NNC(=O)c2csc(N3CCOCC3)n2)oc2ccccc12,1.8
O=C(c1cccc(Cl)c1)N1CCN(S(=O)(=O)c2ccc(Cl)s2)CC1,-2.5
Cc1ccc(C)c(N2N=C(C(=O)Nc3ccccc3N3CCOCC3)CCC2=O)c1,2.5
COc1cc(NC(=O)c2cccc(S(=O)(=O)N3CCCCC3)c2)cc(OC)c1OC,-4.0
C=CC[C@H](CC(=O)NCCO)C(=O)N[C@@H](COC(=O)[C@@H](CC=C)CC(=O)OC(C)(C)C)Cc1c[nH]c2ccccc12,5.4

# Additional results:
SMILES,Mtb betalactam
C[C@]12CC[C@H]3[C@@H](CCC4=CC(=O)CC[C@@]43C)[C@@H]1CC[C@@H]2O,-7.0
COc1ccc(OCC(=O)Nc2ccccc2C(=O)NC2CC2)cc1,-0.1
COc1cccc(C(=O)Nc2ccccc2-c2ccccc2)c1,5.5
O=C(Nc1ccc(S(=O)(=O)N2CCCC2)cc1)c1ccc([N+](=O)[O-])o1,100.0
C[C@H]1COC(=O)[C@@H](CC(=O)OC(C)(C)C)C/C=C\C[C@H](CC(=O)NCCO)C(=O)N1,1.0
CCOC(=O)C1=CC[C@@H](c2cccc(C)c2)N(S(=O)(=O)c2ccc(C)cc2)[C@H]1C(=O)OCC,6.2
CC(Oc1cccnc1[N+](=O)[O-])C(=O)Nc1ccc(F)cc1 (stereo not given),1.6
COc1ccc(S(=O)(=O)N2CCN(C(=O)c3cc(C)on3)CC2)cc1,3.0
Cc1ccc2cccc(OCC(=O)Nc3cccc(S(=O)(=O)N4CCCC4)c3)c2n1,-1.1
CCOC(=O)C1=C(COC(=O)Cc2c(F)cccc2Cl)NC(=O)NC1C (stereo not given),-6.4

# Of the compounds above, two have a cyano group:
SMILES,Mtb betalactam
N#Cc1c([N+](=O)[O-])cc([N+](=O)[O-])cc1S(=O)(=O)Cc1ccccc1,94.9
N#Cc1cc([N+](=O)[O-])ccc1NC(=O)COC(=O)CN1C(=O)C2CCCCC2C1=O (stereo not given),2.2

# (cont.)
SMILES,Mtb betalactam
COCCCN(C(=O)c1cc(C)oc1C)c1c(N)n(CC(C)C)c(=O)[nH]c1=O,-1.8
CCOc1ccc(N2CC(C(=O)NCCCc3ccccc3)CC2=O)cc1 (stereo not given),-8.4
CN(CC(=O)Nc1cccc(F)c1)C(=O)CN1C(=O)C2CCCCC2C1=O (stereo not given),-9.9
Cc1ccc(S(=O)(=O)NCC(=O)NNC(=O)c2ccccc2Cl)cc1C,-9.3
CC1CCCCC1NC(=O)CSC1=Nc2ccccc2C2CC=NN12 (stereo not given),-4.3
COc1ccccc1NC(=O)CNC(=O)CC12CC3CC(CC(C3)C1)C2,2.9
O=C1C=C(c2ccc(O)cc2)C[C@@H](c2ccc(Cl)cc2)C1,u
C[C@H](CO)N1C[C@H](C)[C@@H](CN(C)S(C)(=O)=O)Oc2c(NC(=O)Nc3ccc(C(F)(F)F)cc3)cccc2C1=O,-2.3
O=C(CSc1nc2[nH]c(=O)cc(O)c2s1)Nc1cccc(Br)c1,-13.0
CCS(=O)(=O)Nc1ccc(C2=NN(C(=O)c3ccco3)C(c3ccc(Cl)o3)C2)cc1 (stereo not given),2.8
O=C(COC(=O)Cc1ccc([N+](=O)[O-])cc1)NCc1ccc2c(c1)OCO2,-2.2
Cc1cc(C)n2c(SC(C)C(=O)NC3(C#N)CCCCC3)nnc2n1 (stereo not given),2.9
O=C(CSc1n[nH]c(-c2ccccc2Cl)n1)NC1CCCCC1,-6.8
COc1cc2c(C#CCCO)c(-c3ccc(C#N)cc3)oc(=O)c2cc1OC,8.7
CCC1(c2ccc(OC)cc2)NC(=O)N(CC(=O)NC2CCCCC2C)C1=O (stereo not given),0.7
COc1ccccc1[C@@]1(C)ON(c2ccccc2C(F)(F)F)C1=O,-3.4
COc1ccc(COC(=O)CNC(=O)C2CCCCC2)cc1F,-5.7
CC(N=C1NS(=O)(=O)c2ccccc21)C(=O)Nc1ccc(F)cc1Cl (stereo not given),-4.7
Cc1ccc(N2CC(C(=O)Nc3cccc(C(=O)NC4CC4)c3)CC2=O)cc1 (stereo not given),-7.9
Cc1cc(C)cc(NC(=O)Cc2ccc(S(=O)(=O)N3CCCC3)s2)c1,-8.0
COc1ccc(S(=O)(=O)N2CCOCC2)cc1NC(=O)COc1ccc2ccc(=O)oc2c1,1.9
C=CCc1cc(OC)c2c(c1)OCO2,-3.0
O=C(COC(=O)/C=C/c1cccc(C(F)(F)F)c1)NCCN1C(=O)CSC1=O,0.7
COc1cccc(-c2ncc3ccccc3c2COC(=O)N2CCCCC2)c1,4.3
CCN1C(=O)[C@H]2[C@@H](c3ccc(C)cc3)N3C(=O)N(c4cccc(Cl)c4)C(=O)[C@@]3(C)[C@H]2C1=O,-6.3
CN1CCN(c2ccc(NC(=O)c3cccc(S(=O)(=O)N4CCCC4)c3)cc2)CC1,-0.6
CCOc1cc(N2CCOCC2)c(OCC)cc1NC(=O)CN1C(=O)NC2(CCCCC2)C1=O,-7.8
COc1ccc(CCNC(=O)c2ccc(OCc3c(C)noc3C)cc2)cc1OC,0.6
CC(Sc1ccccc1F)C(=O)Nc1ccc2c(c1)OCCO2 (stereo not given),-1.4
CC(=O)Nc1ccc(S(=O)(=O)N[C@@H](C)C(=O)OCC(=O)c2ccc[nH]2)cc1,-3.4
CCNc1nnc(SCC(=O)c2c(N)n(C3CC3)c(=O)[nH]c2=O)s1,1.4
COc1cc2c(C#CCCCO)c(-c3ccc(C#N)cc3)oc(=O)c2cc1OC,-0.3
CCN(C[C@H]1N[C@@](C)(C(=O)OC)[C@H]2C(=O)N(C)C(=O)[C@@H]12)C(C)=O,-0.7
Cc1ccc(NC(=O)CSCC(=O)NCCc2ccccc2)c(C)c1,1.6
N#Cc1ccccc1S(=O)(=O)N1CCN(C(=O)CN2CCCSc3ccccc32)CC1,-3.1
CCCCn1c(N)c(N(CC)C(=O)C2CCC2)c(=O)[nH]c1=O,-5.4
O=C(C[C@@H]1C/C=C\C[C@@H](Cc2ccc(F)cc2)C(=O)OCCNC1=O)NCCO,-0.6
Cc1cccc(NC(=O)c2nc[nH]c2C(=O)NCCCCCNC(=O)OC(C)(C)C)c1,98.9
Nc1c(N(Cc2ccco2)C(=O)COc2ccccc2F)c(=O)[nH]c(=O)n1Cc1ccccc1,-1.9
CCC(=O)Nc1ccc(C(=O)COC(=O)c2nc3nccc(C)n3n2)cc1,5.0
CC(C)[C@@]1(c2ccc(Cl)cc2)ON(c2ccccc2C(F)(F)F)C1=O,-4.8
Nc1ccc2sc(N)nc2c1,14.9
Cc1ccc(NC(=O)COC(=O)c2ccc(-n3cccn3)cc2)cc1C,1.3
C[C@]12CC[C@H]3[C@@H](CC[C@]4(O)C[C@@H](O)CC[C@]34C=O)[C@@]1(O)CC[C@@H]2C1=CC(=O)OC1,-0.5
CC(=O)NC(C)c1cc(Cl)c2ccccc2c1O (stereo not given),2.0
Cc1ccc(NC(=O)CCSc2nnc(C)o2)cc1,-11.6
CSc1ncccc1C(=O)OCC(=O)c1ccc[nH]1,-8.0
CN(C)S(=O)(=O)c1ccc(C(=O)NNC(=O)c2ccccc2-n2cccc2)cc1,-0.6
Cc1nc(SCC(=O)Nc2cc(S(=O)(=O)N3CCOCC3)ccc2Cl)nc(C)c1C,-10.0
CCOc1ccc(NC(=O)CN(C)C(=O)Cc2sc(C)nc2-c2ccc(F)cc2)cc1OCC,-5.2

# Continuation.
SMILES,Mtb betalactam
Cc1ccc(NS(=O)(=O)c2cccs2)c(C)c1,-13.2
N#CC1(NC(=O)CSc2nnc(C3CC3)n2C2CC2)CCCCC1,-4.8
CC(=O)Nc1ccc(C2=CC(=O)C[C@H](c3ccc(Cl)cc3)C2)cc1,11.2
CCOC(=O)c1c(C)[nH]c(C)c1C(=O)COC(=O)c1ccc(Cl)nc1,4.3
C[C@]12CC[C@@H](O)CC1=CCC1C2CC[C@@]2(C)C1C[C@@H](F)[C@@H]2O (stereo not given in full),-2.3
CSCCC(NC(=O)COc1ccccc1)C(=O)N1CCN(c2ccccc2)CC1 (stereo not given),-3.2
S=c1nc2c(n[nH]1)c1ccccc1n2CCc1ccccc1,0.6
Cc1ccc(NC(=O)Cn2nc(C(=O)O)c3ccccc3c2=O)cc1S(=O)(=O)N1CCCCC1,2.2
CC(C)NC(=O)Nc1ccc2c(c1)C(=O)N([C@H](C)CO)C[C@H](C)[C@@H](CN(C)C(=O)Nc1ccc3c(c1)OCO3)O2,-2.1
CN(Cc1ccc(C(F)(F)F)cc1)C(=O)c1ccc2ccccc2n1,12.1
CC(Oc1ccccc1)C(=O)OCC(=O)Nc1ccc2c(c1)OCO2 (stereo not given),4.7
Cc1cc(C)n2c(SCC(=O)Nc3ccccc3C#N)nnc2n1,2.8
Cc1ccc(-n2ncc3c(=O)n(CC(=O)N4CCN(C(=O)c5ccco5)CC4)cnc32)cc1,4.1
COc1ccc([C@H]2CC(=O)C=C(c3ccc(CO)cc3)C2)cc1,-0.6
O=C(NC(=S)Nc1sc2c(c1C(=O)O)CCCC2)c1ccccc1,-13.8
CN(C(=O)COC(=O)CNC(=O)c1sc2ccccc2c1Cl)C1CCS(=O)(=O)C1 (stereo not given),-2.4
CCN(CC)S(=O)(=O)c1cccc(C(=O)OCC(=O)NCCN2C(=O)CSC2=O)c1,-2.1
COc1cc(/C=C/C(=O)OCC(=O)Nc2cccc(F)c2)ccc1O,19.5
Cc1noc(C)c1COC(=O)c1csc2c1CCC(C)C2 (stereo not given),1.9
COc1cc(NC(=O)COc2cccc3c2OC(C)(C)C3)cc(OC)c1OC,-2.0
CC(C)(C)N(Cc1ccccc1)C(=O)CN1C(=O)c2ccccc2S1(=O)=O,2.1
COc1cc(C(=O)NNC(=O)c2cc(S(=O)(=O)N(C)C)ccc2N2CCCC2)cc(OC)c1OC,-13.5
CC(=O)NCCc1c[nH]c2ccccc12,-6.4
Cc1cc(Br)c(NC(=O)CSc2n[nH]c(N)n2)c(Br)c1,-2.7
Cn1ccc(NC(=O)c2ccc([N+](=O)[O-])cc2)n1,-5.8
CCc1ccc(NC(=O)C(C)OC(=O)Cc2cc(OC)c(OC)c(OC)c2)cc1 (stereo not given),-0.9
O=C(O)c1ccccc1-c1c2cc(I)c(=O)c(I)c-2oc2c(I)c(O)c(I)cc12,17.7
CN(CC(=O)Nc1ccc(F)cc1)C(=O)c1cccc(NS(=O)(=O)c2ccccc2)c1,-1.6
C=C(C)[C@@H]1C2C(=O)O[C@H]1[C@H]1OC(=O)[C@@]34OC3C[C@]2(O)[C@@]14C (stereo not given in full),-4.3
Cc1ccc2c(CC(=O)Nc3ccc(F)c(S(=O)(=O)N4CCOCC4)c3)coc2c1,5.5
CCCCC/C=C/C1=CC(=O)C[C@H](c2ccc3c(c2)OCO3)C1,1.7
CCOC(=O)C1=C(C)NC(C)=C(C(=O)OCC)C1C(=O)OCC(=O)NCCc1ccccc1,2.6

# Screens from PubChem BioAssay.

# Some of the compounds tested, so the mix of outcomes need not match the whole.
